HCMV NEC inh = disrupts HCMV UL50-UL53 complex binding | HTRF UL50-UL53 interaction, normalized percent inhibition | inhibition, % (test concentration not listed) | hit rate 0.15% among 190,000;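 active = both replicates at 50% or more, plus weaker picks with an unusually low signal ratio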;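 also: stock transfer was 100 nL into about 20 µL; 0% = negative control wells and 100% = wells with untagged competitor protein; inactives centre near -12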
GIV-Gai inh = GIV-Galpha-i interaction inhibition | Galpha-i3/FITC-GIV peptide fluorescence polarization, 90 min; hits give low values; scaled: aluminum fluoride 0%, vehicle 100% | percent of control (FP), % (no concentration beside the values) | hit rate 0.42% among 210,000 | P08753;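 active = replicate mean at 85% of control or lower, very high polarization wells dropped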;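 also: wells of about 15 µL received 100 nL stock; the first replicate is given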
Target sequence (P08753 whole entry, looked up): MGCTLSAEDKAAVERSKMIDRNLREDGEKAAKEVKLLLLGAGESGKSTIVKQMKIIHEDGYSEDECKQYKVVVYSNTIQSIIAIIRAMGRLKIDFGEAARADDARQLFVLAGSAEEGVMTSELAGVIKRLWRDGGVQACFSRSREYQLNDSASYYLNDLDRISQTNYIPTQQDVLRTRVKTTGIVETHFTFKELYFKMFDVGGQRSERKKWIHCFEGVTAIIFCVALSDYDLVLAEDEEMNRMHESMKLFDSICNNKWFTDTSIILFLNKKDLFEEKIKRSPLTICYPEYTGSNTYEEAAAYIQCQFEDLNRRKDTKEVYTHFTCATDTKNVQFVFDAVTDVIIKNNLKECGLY
Sa growth inh = blocks Staphylococcus aureus growth | hit rate 0.53% among 170,000 | S. aureus RN4220 growth, OD600, 20 h, 42 °C; hits give low values | relative growth, % (test concentration not listed) | AID 720641;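 active = growth at 42 °C up to 50% and 20 or more points under that at 30 °C, or under 10% at both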;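 also: 300 nL library stock went into each well; scaled to the means of positive and negative controls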
Sa growth inh second temp = further read-out of Sa growth inh, marked with its call; relative growth, %; measured here: growth at 30 °C;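 optical density after 20 h as mean of two plates; 100% = untreated growth and lower means inhibition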
Active calls of the source: *; nt = no result given.

The line under a structure holds: HCMV NEC inh	GIV-Gai inh	Sa growth inh	Sa growth inh second temp
O=C(Nc1nccs1)c1cccc(C(=O)Nc2nccs2)c1
→ -1	107	99	75
COc1ccc2[nH]c(C(=O)NCc3ccccc3)cc2c1
→ 3	101	102	80
CCc1ccc(NC(=O)COC(=O)CCCC2=NS(=O)(=O)c3ccccc3N2)cc1
→ nt	104	87	100
O=C(O)CC(C(=O)Nc1ccc2ccccc2c1)N1CCOCC1 (stereo unspecified)
→ -12	nt	101	92
CCOC(=O)C1=C(C)NC(C)=CC1=C(C#N)C#N
→ -23	110	82	79
CC(C)CCN1C(=O)CC(N2CCN(S(=O)(=O)c3cccc(Br)c3)CC2)C1=O (stereo unspecified)
→ 2	nt	110	97
CCC(=O)Nc1cccc(-c2nc3cc(C)ccc3o2)c1
→ nt	104	114	58
Cc1cc(C)cc(NC(=O)Nc2ccccc2OCc2cc(=O)n3ccccc3n2)c1
→ nt	108	82	91
O=C1CCS(=O)(=O)N1c1ccc(S(=O)(=O)N2CCCCC2)cc1
→ -11	106	nt	nt
COc1ccc(Cn2cc(-c3ccccc3)nn2)cc1
→ -12	nt	103	83
CCOCCc1nn2c(=O)cc(COC(=O)COc3ccccc3Cl)nc2s1
→ nt	102	92	90
Cc1ccc(C(=O)NC2CCOc3ccccc32)o1 (stereo unspecified)
→ 24	nt	84	86
CCN(C(=O)CN(C)S(=O)(=O)c1ccc2c(c1)n(C)c(=O)c(=O)n2C)c1cccc(C)c1
→ 8	104	72	98
CC(=O)NC(=S)Nc1cccc(C)c1
→ 0	nt	115	81
CC(=O)Nc1ccc2c(CSc3nnc(-c4ccoc4C)n3-c3ccccc3)cc(=O)oc2c1
→ -79	nt	67	92
CCCCNc1nc2c(c(=O)n(Cc3ccc(Cl)c(Cl)c3)c(=O)n2C)n1C
→ -15	108	103	71
Cc1cc(Nc2ncc(Cl)cc2Cl)n[nH]1
→ 3	nt	2.2*	0.0*
Cc1c(OCc2ccc(Cl)c(Cl)c2)ccc(C(=O)/C=C/N(C)C)c1O
→ 0	104	100	97
COc1ccccc1OCCOc1ccc(/C=c2\sc3nc4ccccc4n3c2=O)cc1OC
→ -1	109	nt	nt
O=C(NCc1csc2ccccc12)C1CCCCC1
→ -7	99	95	79
CC1=C(OC(=O)c2c(-c3c(Cl)cccc3Cl)noc2C)C(=O)CC1
→ 8	104	88	77
COc1ccc(NC(=O)CCc2nc3cccnc3n2Cc2cccs2)c(OC)c1
→ -26	125	113	84
CC(=O)O[C@H]1C[C@@]2(C)[C@@H](C[C@@H](O)C3[C@]2(C)CC[C@H]2[C@H](C)[C@H](O)CC[C@]32C)/C1=C(/CCC=C(C)C)C(=O)O (stereo partly specified)
→ -18	nt	0.6*	-1.0*
Cc1csc(N(C(=O)C2CCC2)c2ccccc2)n1
→ -10	nt	113	93
O=C(N/N=C/c1ccc(Br)s1)C1CC12CCC2 (stereo unspecified)
→ -16	97	107	94
CCNc1nc(=S)nc(NCc2ccccc2)[nH]1
→ 4	106	105	73
CC(C)CN1C(=O)CSC1c1cn(-c2ccccc2)nc1-c1cc2ccccc2o1 (stereo unspecified)
→ -22	nt	100	86
Cc1ccc(-n2nc3c4ccccc4n(C)c3cc2=O)cc1
→ -119	104	94	78
CN(C1CCCCC1)S(=O)(=O)c1ccc(C(=O)Nc2sc3c(c2C(N)=O)CC(C)(C)NC3(C)C)cc1
→ nt	99	127	91
COc1ccc(C2=Nc3ccccc3N(Cc3ccccc3Cl)C(=O)C2)cc1
→ -16	99	nt	nt
c1ccc(-c2noc(-c3ccc(NCc4cccnc4)nn3)n2)cc1
→ -21	101	nt	nt
CCc1nc(C)cn1S(=O)(=O)c1ccccc1Cl
→ -9	104	nt	nt
CCOc1ccc(S(=O)(=O)NCCc2csc3nc(-c4cccc(C)c4)nn23)cc1
→ nt	99	119	86
Cc1cc(C)cc(N2C(=O)C(Cc3ccccc3)N=C2N2CCN(Cc3ccc4c(c3)OCO4)CC2)c1 (stereo unspecified)
→ -27	105	nt	nt
COc1ccc(CSCC(=O)NCCN2CCOCC2)cc1
→ -1	98	101	104
CC(C)(CO)NS(=O)(=O)c1csc(C(=O)Nc2ccccc2)c1
→ -10	102	93	97
COCCOC(=O)C1=C(C)NC2=C(C(=O)CC(c3ccc(OC)c(OC)c3)C2)C1c1ccccc1Cl (stereo unspecified)
→ -8	99	nt	nt
COc1cccc(NC2=Nc3cccc4cccc2c34)c1
→ nt	167	98	91
CC(=O)n1c(C=NCc2ccccc2)c(O)c2ccccc21
→ nt	100	91	78
O=C(NC1CCCC1)N1CCN(Cc2nc3cc(Cl)ccc3o2)CC1
→ -13	107	nt	nt
N#Cc1c(NC(=O)CN2C(=O)C3CC=C(Cl)CC3C2=O)sc2c1CCC2 (stereo unspecified)
→ -1	104	90	93
Cc1ccc(CCNC(=O)c2c(C)nn(-c3ccc(F)cc3)c2-n2cccc2)cc1
→ nt	105	99	77
CCOc1cc(C2NC(=O)c3c(sc4c3CCN(C)C4)N2)ccc1OC(=O)c1ccc(Br)cc1 (stereo unspecified)
→ -56	107	102	90
COCCCNC(=O)c1c(NC(=O)c2cc(=O)c3ccccc3o2)sc2c1CCCC2
→ -2	102	95	88
CCCCn1c(=O)c(C#N)cc2c(=O)n3ccccc3nc21
→ nt	114	84	70
COc1cccc(CNC(=O)CSc2ccc(-c3sc(-c4ccccc4)nc3C)nn2)c1
→ nt	102	102	82
C#CCn1c(C(C)Oc2ccccc2)nc2ccccc21 (stereo unspecified)
→ -12	106	101	99
COc1ccc(C2=NN(C(C)=O)C(c3ccccc3)C2)cc1OC (stereo unspecified)
→ nt	97	110	82
COc1cc(SC)ccc1C(=O)NC1CC1
→ -1	nt	115	112
COc1ccc2c(c1)c1c(c(=O)n(-c3ccccc3)c(=O)n1CC(=O)NCc1ccc(C)cc1)n2C
→ nt	104	115	85
CCOC(=O)c1oc2ccccc2c1COC(=O)c1cccs1
→ -41	nt	96	93
O=C(CS(=O)(=O)c1cccc2nsnc12)Nc1ccccc1Cl
→ nt	99	108	88
O=C(Nc1ccc2nc(CN3CCCCC3)[nH]c2c1)c1cccs1
→ 5	103	101	77
O=C(O)c1ccc(CNCc2ccc(F)cc2)s1
→ -17	102	98	86
COc1cc(C2c3c(oc4ccccc4c3=O)C(=O)N2CCCOC(C)C)cc(Br)c1O (stereo unspecified)
→ -6	100	131	99
CCC(=O)n1cc(/C=C2\SC(=NC)N(C)C2=O)c(-c2ccccc2)n1
→ -60	100	nt	nt
CCOc1ccc(NS(=O)(=O)c2ccc3[nH]cc(C(=O)NCCc4ccccc4)c(=O)c3c2)cc1
→ nt	104	154	73
CCOC(=O)c1cc2c(N3CCOCC3)nccc2nc1C(F)(F)F
→ -14	91	119	90
CCOc1ccccc1NC(=O)c1c(NC(=O)C(C)Oc2ccc(Cl)cc2)sc2c1CCCCC2 (stereo unspecified)
→ -65	103	92	81
Cc1ccc(C(=O)NC2CCCCNC2=O)cc1C (stereo unspecified)
→ -11	105	100	96

Fetched one by one from the entries so far:
The line under a structure holds: HCMV NEC inh	GIV-Gai inh	Sa growth inh	Sa growth inh second temp
COc1cc(C2c3c(oc4ccccc4c3=O)C(=O)N2CCCOC(C)C)cc(Br)c1O (stereo unspecified)
→ -6	100	131	99
CCOc1ccc(S(=O)(=O)NCCc2csc3nc(-c4cccc(C)c4)nn23)cc1
→ nt	99	119	86
C#CCn1c(C(C)Oc2ccccc2)nc2ccccc21 (stereo unspecified)
→ -12	106	101	99

Arranged by the number under Sa growth inh (descending): 5 of the compounds above.
| SMILES | Sa growth inh |
| --- | --- |
| CCOC(=O)c1cc2c(N3CCOCC3)nccc2nc1C(F)(F)F | 119 |
| COc1ccc(C2=NN(C(C)=O)C(c3ccccc3)C2)cc1OC (stereo unspecified) | 110 |
| COc1cccc(CNC(=O)CSc2ccc(-c3sc(-c4ccccc4)nc3C)nn2)c1 | 102 |
| CCOC(=O)c1oc2ccccc2c1COC(=O)c1cccs1 | 96 |
| CCOc1ccccc1NC(=O)c1c(NC(=O)C(C)Oc2ccc(Cl)cc2)sc2c1CCCCC2 (stereo unspecified) | 92 |

More records.
The line under a structure holds: HCMV NEC inh	GIV-Gai inh	Sa growth inh	Sa growth inh second temp
Cc1cc(=O)n2c(c1C#N)SC1CCCCC12O (stereo unspecified)
→ -23	nt	84	101
CCOc1ccc(-n2c(C)c(C)c3c2ncn2nc(C)nc32)cc1
→ -8	110	nt	nt
O=C1COc2ccc(S(=O)(=O)N3CCC(C(=O)N4CCN(c5ccccc5)CC4)CC3)cc2N1
→ -27	102	nt	nt
C=CCSc1nc2c(c(=O)[nH]1)C(c1ccncc1)C(C(=O)OC)=C(C)N2 (stereo unspecified)
→ -13	nt	90	94
Cc1cc(C)cc(C(=O)NCCCN2CCOCC2)c1
→ 4	101	96	89
CCOC(=O)NC(=S)N1CCCC1
→ -40	102	97	88
CN(C)NC(=S)NC1CCS(=O)(=O)C1 (stereo unspecified)
→ -31	105	82	86
N#C/C(=C/N1CCOCC1)c1ccccc1
→ -24	101	98	81
Cc1cccc(NC(=O)c2cc3ccccc3oc2=O)c1
→ -6	nt	92	99
CC(=O)c1cccc(NC(=O)c2nc(-c3ccccc3)n(-c3cccc(Cl)c3)n2)c1
→ -22	100	107	80
Cc1oc2ncnc(N3CCCCC3)c2c1C(=O)Nc1ccc(F)cc1
→ -7	99	nt	nt
Cc1ccc(NS(=O)(=O)c2ccc3nc(-c4ccccc4)[nH]c3c2)c(Cl)c1
→ -1	111	103	91
COc1ccc(Cl)cc1NC(=O)C1CCN(c2ccc(S(=O)(=O)c3ccc(C)cc3)nn2)CC1
→ -21	102	nt	nt
Cc1onc(-c2c(Cl)cccc2Cl)c1CSc1nncn1C(C)(C)C
→ -8	106	106	89
O=C(NCCC1=CCCCC1)c1ccc2c(c1)ncn2-c1ccc(F)c(F)c1
→ nt	100	112	92
O=C(CCN1CCc2ccccc2C1)Nc1ccc(F)c(F)c1
→ 0	97	99	88
Cc1c(-c2csc(-c3ccc4c(c3)OCCO4)n2)cnn1-c1ccccc1
→ -36	104	86	79
O=S1NN(c2ccccc2)S(=O)NN1c1ccccc1 (stereo unspecified)
→ nt	100	100	100
COc1ccc(CN(CCC(c2ccc3c(c2)OCO3)c2ccccc2OC)C(=O)c2ccco2)cc1 (stereo unspecified)
→ nt	104	98	85
Cc1noc2nc(C)n(CC(=O)NC(C)C(=O)N3CCCCC3)c(=O)c12 (stereo unspecified)
→ -6	103	nt	nt
CCCN=Cc1c(O)n(C2CCCCC2)c(=O)n(C2CCCCC2)c1=O
→ -17	101	87	95
CS(=O)(=O)N(CC(=O)N1CCCC1)c1ccc2c(c1)OCO2
→ -1	104	98	89
O=C(Cn1cc(S(=O)(=O)N2CCN(c3ccccc3F)CC2)c2ccccc2c1=O)Nc1cccc(C(F)(F)F)c1
→ -9	105	107	92
CCCN1CNc2c(c(=O)n(C)c(=O)n2C)C1
→ -20	104	100	90
COC(=O)c1[nH]c(-c2ccccc2)c(C)c1C(=O)OC
→ -1	101	102	103
COc1ccc(/C=C/c2noc(-c3ccccc3O)n2)cc1OC
→ 4	110	98	105
COc1cc(C)nc(-c2csc(C)n2)n1
→ 2	105	149	95
O=C(O)/C=C/Sc1ccccc1
→ -12	nt	106	101
CCOC(=O)c1cc(-c2ccccc2)sc1NC(=O)COC(=O)C1CC(=O)N(Cc2ccco2)C1 (stereo unspecified)
→ -11	nt	82	91
CCCCn1c(SCC(=O)NCc2ccc(C)cc2)nc2c(sc3ccccc32)c1=O
→ nt	100	88	75
CCCn1c(SCC(=O)NCc2ccc(Cl)cc2)n[nH]c1=O
→ -26	nt	87	83
O=C(CSCc1ccc(F)cc1)NC1CCCCC1
→ nt	101	121	85
Cn1cc(S(=O)(=O)N2CCCCC2)cc1C(=O)Nc1cccc(C#N)c1
→ nt	101	114	104
CC(=O)Nc1ccc(Oc2ccccc2)cc1
→ -44	104	94	87
COc1ccc(NC(=O)c2cnn(-c3ccc(C)cc3)c2-n2cccc2)cc1Cl
→ nt	100	89	85
Cc1ccc(-c2nc3cc(Cl)ccc3o2)cc1NC(=O)c1cc2ccccc2o1
→ -42	106	91	90
COC(=O)c1ccc(S(=O)(=O)NCc2csc3ccc(Cl)cc23)n1C
→ -15	97	96	81
O=C(c1cccnc1Nc1ccccc1F)N1CCCCC1
→ 9	111	98	81
O=C(CSc1n[nH]c(=O)n1C1CC1)c1ccc(F)cc1
→ 12	101	113	99
Cc1ccc2cc3cc(C(=O)N(C)C4CCCCC4)oc3nc2c1
→ 0	101	110	104
COc1ccccc1N1CCN(c2ccc(=O)n(CC(=O)O)n2)CC1
→ -29	104	94	85
CCN(CC)c1ncnc2c1[nH]c1ccccc12
→ -5	104	78	56
COc1ccc(OC)c(CNC(=O)c2c3c(nc4ccccc24)C(=O)N(C2CCCCC2)C3)c1
→ nt	100	96	89
O=C1NC(=Nc2ccccc2)c2ccccc21
→ -34	nt	105	91
CN(C)CCNCc1ccc(-c2cc(Cl)ccc2Cl)o1
→ -13	101	nt	nt
Fc1ccccc1-c1noc(-c2cc(-c3ccccc3)n[nH]2)n1
→ -16	103	nt	nt
O=C(O)c1ccccc1COc1ccccc1Cl
→ 0	100	137	102
CN1CCN(C(=O)c2ccc(N(C)S(C)(=O)=O)cc2)CC1
→ 8	105	84	111
COc1ccc(NC(=O)c2ccc(OC)c(OC)c2)cc1CN1CCn2c(nc3ccccc32)C1
→ -3	100	nt	nt

Compound activity (PubChem)
